CtBP-E1A inh: qHTS Assay for Inhibitors of the CtBP/E1A Interaction; AlphaScreen GST-E1A/His-CtBP binding, 1536-well; hits give low values; control for the full effect not named in the record; activity change, % (concentration not given with the values); CtBP / adenovirus E1A interaction (AlphaScreen); 340,000 tested, 0.49% active; in the data active means activity change below about -65%; inconclusive means about -30% to -65%; inactive means above about -30%; note: % is set by controls: 0 for no effect and ±100 for the full control effect
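In 5 uL wells, 23 nL compound meets equimolar GST-E1A and His-CtBP (5X stock 125 nM each) for 2 h, 37 °C. Beads (5X, 50 ug/mL) then 1 h, 37 °C, dark.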
Six1-Eya2 blk: qHTS Assay for Inhibitors of the Six1/Eya2 Interaction | Homeobox protein SIX1 (Homo sapiens) + Protein phosphatase EYA2 (Homo sapiens), … | AlphaScreen GST-Six1/His-Eya2 binding, biochemical; hits give low values; control for the full effect not named in the record | activity change, % (no concentration beside the values) | 360,000 tested, 0.56% active; in the data active = activity change below about -65%; inconclusive = about -30% to -65%; inactive = above about -30%; note: % is set by controls: 0 for no effect and ±100 for the full control effect; compound concentration not given in the record
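AlphaScreen with GST-Six1 and His-Eya2 (5X mix: 250 nM and 500 nM), glutathione donor and nickel acceptor beads; buffer 50 mM Tris pH 8.0, 300 mM NaCl, 1 mM TCEP; 1 h at 37 C in the dark.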
D2 PAM: Beta-Arrestin HTS for Positive Allosteric Modulators of the Human D2 Dopamine Receptor: Potentiators; D(2) dopamine receptor (Homo sapiens), P14416; DiscoveRx D2 beta-arrestin cells, luminescence, 90 min; 100% = 57 uM dopamine signal; potentiation, % (concentration not given with the values); 360,000 tested, 0.23% active; active = potentiation of 50% or more; inconclusive = 30% to 50%; inactive = 30% or less;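 note: compound concentration not given in the record; tested on top of an EC20 dose of dopamine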
Target sequence (P14416 whole entry, looked up): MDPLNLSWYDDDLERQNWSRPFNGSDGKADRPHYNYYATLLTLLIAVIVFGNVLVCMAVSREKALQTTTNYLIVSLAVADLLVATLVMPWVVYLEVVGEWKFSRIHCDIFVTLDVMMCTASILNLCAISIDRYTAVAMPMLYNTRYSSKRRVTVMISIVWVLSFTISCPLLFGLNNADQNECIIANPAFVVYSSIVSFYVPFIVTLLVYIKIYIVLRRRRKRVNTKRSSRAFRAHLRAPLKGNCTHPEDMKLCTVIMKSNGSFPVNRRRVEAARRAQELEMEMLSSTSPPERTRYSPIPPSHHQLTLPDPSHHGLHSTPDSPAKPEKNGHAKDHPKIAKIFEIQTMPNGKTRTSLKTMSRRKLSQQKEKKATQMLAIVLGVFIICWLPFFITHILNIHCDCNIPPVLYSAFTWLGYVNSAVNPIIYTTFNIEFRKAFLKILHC
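PathHunter beta-arrestin assay in DiscoveRx D2 cells. Compounds were added with an EC20 of dopamine (50 nM final) for 90 min at 37 deg C. Luminescence was read 1 h after detection reagent, with 57 uM dopamine as the EC100 control.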
TRPV1 potentiator: HTS Assay for Compounds that Act as Potentiators of the Vanilloid Receptor 1 | TRPV1-expressing cells, Fluo-8 calcium influx, capsaicin EC20 potentiation; host cell line not named in the record; control for the full effect not named in the record | potentiation, % at 8.33 µM | 320,000 tested, 0.02% active | Transient receptor potential cation channel subfamily V member 1 (Homo sapiens), Q8NER1 | AID 540277, 2011; active means potentiation above 80%; inconclusive means 30% to 80%; inactive means below 30%; note: 0% is about no effect
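Cells expressing TRPV1 were dye-loaded with Fluo-8 and read kinetically: 10 s baseline, 3 min after compound (agonist portion), then 2 min after EC20 capsaicin (allosteric enhancer portion). Calcium-bound dye fluorescence at 480/520 nm.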
TRPML1 agonist: qHTS for Agonists of the Human Mucolipin Transient Receptor Potential 1 (TRPML1); Mucolipin-1 (Homo sapiens), Q9GZU1; TRPML1-expressing cells, Ca2+ dye fluorescence, FDSS; host cell line not named in the record; reference of the full effect not given here; activation, % (test concentration not listed); 410,000 tested, 0.12% active; AID 624414, 2012; in the data active = activation above about 50%; inconclusive = about 30% to 50%; inactive = below about 30%; note: 0% is about no effect; the text of the record puts the active cut at 80%
Target sequence (Q9GZU1 whole entry, looked up): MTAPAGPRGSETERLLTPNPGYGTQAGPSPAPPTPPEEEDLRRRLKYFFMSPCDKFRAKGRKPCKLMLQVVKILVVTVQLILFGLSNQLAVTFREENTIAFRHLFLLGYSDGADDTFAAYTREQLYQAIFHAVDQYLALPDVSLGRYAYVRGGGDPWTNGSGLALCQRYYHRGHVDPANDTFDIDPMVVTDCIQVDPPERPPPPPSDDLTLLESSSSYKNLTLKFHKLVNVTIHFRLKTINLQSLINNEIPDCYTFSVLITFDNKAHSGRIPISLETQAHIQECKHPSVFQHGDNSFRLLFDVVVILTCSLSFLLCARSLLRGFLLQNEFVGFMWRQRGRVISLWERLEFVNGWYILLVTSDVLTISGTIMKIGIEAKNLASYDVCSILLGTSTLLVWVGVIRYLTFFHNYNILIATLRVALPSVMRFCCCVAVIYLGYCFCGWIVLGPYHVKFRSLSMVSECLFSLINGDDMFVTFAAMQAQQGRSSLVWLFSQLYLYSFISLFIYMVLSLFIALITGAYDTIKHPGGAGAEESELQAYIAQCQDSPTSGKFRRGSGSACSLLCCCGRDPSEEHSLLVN
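Agonist activity was taken from a 110 s kinetic Ca2+ dye read on the FDSS after pinning compounds onto TRPML1-DL cells. The cells were seeded at 1,500/well with Tet inducer, incubated about 16 h, then dye-loaded at room temperature.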
TRPML1 inh: qHTS for Inhibitors of the Human Mucolipin Transient Receptor Potential 1 (TRPML1) | Mucolipin-1 (Homo sapiens), Q9GZU1 | TRPML1-inducible cells, Ca2+ dye fluorescence, FDSS; hits give low values; inhibition of EC80 agonist-evoked calcium signal | activity change, negative = inhibition, % (test concentration not listed) | 390,000 tested, 0.02% active | AID 624415, 2012; in the data active means activity change below about -50%; inconclusive means about -30% to -50%; inactive means above about -30%;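 note: stimulus is agonist 54-4 at its EC80 concentration; % is set by controls: 0 for no effect and ±100 for the full control effect; compound concentration not given in the record; the text of the record puts the active cut at -80%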
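Calcium fluorescence in TRPML1-DL cells induced overnight with Tet: a 110 s read after compound pin addition, then a 110 s antagonist read after challenge with 54-4 at 4 uM final (EC80).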
Numbers without * were called inactive; u = inconclusive; x = not tested or not shown; & = joins results of further samples.

SMILES	CtBP-E1A inh	Six1-Eya2 blk	D2 PAM	TRPV1 potentiator	TRPML1 agonist	TRPML1 inh
COc1ccccc1N(CC(=O)Nc1ccc(S(=O)(=O)N2CCCCC2)cc1)S(C)(=O)=O	-3	4	15	u	1.5	7
COc1ccccc1C(=O)NCCC(=O)NNC(=O)c1ccccc1O	-2	-1	-1	19	0.3	-9
CCc1nc2ccc(C(=O)NC3CCC(C)CC3)cc2nc1CC (stereo not given)	1	3	-5	-7	1.8	-4
Cc1cc[n+](CC(=O)Nc2cccc(C)c2)cc1	x	9	-28	0	x	x
O=C(CSc1nnc(SCc2ccccc2)s1)N/N=C/C=C/c1ccco1	2	-21	-12	25	1.8	12
O=C(/C=C/c1ccc(Cl)cc1)Nc1cc(S(=O)(=O)N2CCOCC2)ccc1N1CCOCC1	-8	-13	-23	x	-0.3	-9
O=C1CNC(=S)N1Cc1ccccc1	1	1	-11	-6	1.3	13
COc1ccccc1CCNCc1ccc(OC)c(OCc2ccccc2)c1	-2	-3	-16	14	-0.3	13
O=C(O)C1(O)C[C@@H](O)C(O)[C@H](O)C1 (stereo not given in full)	-17	3	-4	x	0.6	-11
Cc1c(C(=O)O)sc(S(=O)(=O)N2CCN(C(=O)Cc3ccc(F)cc3)CC2)c1C(=O)O	-2	1	-3	17	1.0	8
Cc1ccc(C(=O)NCc2occc2C(=O)O)o1	0	-17	7	4	-0.8	11
CC(C)Cc1nn2c(=O)cc(O)nc2s1	7	0	-8	-2	2.0	4
O=S(=O)(c1cccc(C(F)(F)F)c1)N1CCN(CC(O)COCc2ccccc2)CC1 (stereo not given)	-7	3	0	x	-0.1	-18
CCCCOc1ccc2c(c1)C(=O)c1cc(O)ccc1-2	7	-25	-19	-53	0.9	30
Cc1cc(C)c(OCC(O)CN2CCN(C(=O)c3ccccc3)CC2)c(C)c1 (stereo not given)	x	3	-20	-9	-0.8	3
CCCOc1ccccc1N/C(=N\S(=O)(=O)c1ccc(C)cc1)Nc1nc(C)cc(C)n1	1	7	-11	x	-0.5	-5
O=C(COc1ccc2ccccc2c1)Nc1nc2ccccc2[nH]1	7	8	-9	13	0.5	-11
COc1ccc(Nc2nc(-c3cccc(OC)c3O)nc3ccccc23)cc1	u	u	1	8	0.1	3
COc1ccc(CCNc2ccc(S(=O)(=O)N3CCCC3)cc2[N+](=O)[O-])cc1	-29	u	-7	u	1.9	82
O=C(Nc1ccccn1)c1cc(-c2cccc(Cl)c2)nc2ccccc12	1	-4	8	25	4.2	77

Of the compounds above, these contain an aryl methoxy group:
SMILES	CtBP-E1A inh	Six1-Eya2 blk	D2 PAM	TRPV1 potentiator	TRPML1 agonist	TRPML1 inh
COc1ccccc1N(CC(=O)Nc1ccc(S(=O)(=O)N2CCCCC2)cc1)S(C)(=O)=O	-3	4	15	u	1.5	7
COc1ccccc1C(=O)NCCC(=O)NNC(=O)c1ccccc1O	-2	-1	-1	19	0.3	-9
COc1ccccc1CCNCc1ccc(OC)c(OCc2ccccc2)c1	-2	-3	-16	14	-0.3	13
COc1ccc(Nc2nc(-c3cccc(OC)c3O)nc3ccccc23)cc1	u	u	1	8	0.1	3
COc1ccc(CCNc2ccc(S(=O)(=O)N3CCCC3)cc2[N+](=O)[O-])cc1	-29	u	-7	u	1.9	82

Gathered by group, the entries above containing a furan ring, fused or not.
SMILES	CtBP-E1A inh	Six1-Eya2 blk	D2 PAM	TRPV1 potentiator	TRPML1 agonist	TRPML1 inh
O=C(CSc1nnc(SCc2ccccc2)s1)N/N=C/C=C/c1ccco1	2	-21	-12	25	1.8	12
Cc1ccc(C(=O)NCc2occc2C(=O)O)o1	0	-17	7	4	-0.8	11

Next part.
SMILES	CtBP-E1A inh	Six1-Eya2 blk	D2 PAM	TRPV1 potentiator	TRPML1 agonist	TRPML1 inh
CC(c1ccco1)N(C(=O)c1ccc(Cl)c([N+](=O)[O-])c1)c1ccccn1 (stereo not given)	0	-3	-3	-7	2.0	-2
O=C(c1cc(-c2ccc(O)cc2)on1)N1CCCc2ccccc21	15	19	0	x	0.5	-5
O=C(NCCO)Nc1ccc2nsnc2c1	x	5	-11	-1	-0.2	-5
COc1ccc(-c2noc(CN(C)C(=O)c3ccc4c(c3)OCO4)n2)cc1	17	-3	-6	-8	-0.2	29
O=C(CSc1ccc(-c2ccc(F)cc2)nn1)N1CCCc2ccccc21	3	-13	-6	-1	6.8	-15
COc1cc(-n2c(=O)c3ccccc3n(Cc3cc(=O)n4ccccc4n3)c2=O)cc(OC)c1OC	-8	7	-10	17	0.5	29
C/C(=N/NC(=O)COc1cc(C)ccc1C(C)C)C(=O)O	3	-4	4	7	-1.1	8
Cc1c(C(=O)NC(=S)NCc2cccnc2)oc2ccccc12	-9	-5	1	12	0.3	5
Cc1ccc(C(=O)N2CCC(C(=O)NC3CCCCCC3)CC2)cc1	8	1	-2	1	-0.6	2
COc1cc(C(=O)NC(=S)NCc2ccco2)cc(OC)c1OC	0	-3	1	0	2.9	-16
C#CCOCCOCCOCCNc1nc(N2CCN(C(=O)CCCCCCCCCCNC(=O)[C@H](CCCCN)n3cc(CCO)nn3)CC2)nc(N2CCN(C(=O)CCCCCCCCCCNC(=O)[C@H](CCCCN)n3cc(C[C@@H](C)CC)nn3)CC2)n1	-18	1	-13	u	1.7	26
C/C(=N\NS(=O)(=O)c1ccc(Cl)cc1)c1ccc(NC(=O)c2ccco2)cc1	-1	-16	-2	-14	2.1	-2
CCOc1ccccc1C1C2C(=O)N(c3ccccc3)C(=O)C2ON1c1ccccc1 (stereo not given)	2	-2	4	-8	1.8	16
CCOC(=O)Cc1csc(NC(=O)c2c(-c3c(Cl)cccc3Cl)noc2C)n1	-1	-3	8	u	3.8	-6
CCCc1cc(=O)[nH]c(SCC(=O)N2CCN(S(=O)(=O)c3ccc(C)cc3C)CC2)n1	1	8	-1	0	2.4	8
O=C(NCCCCO)C(F)(F)C(F)(F)C(F)(F)C(=O)NCCCCO	8	-8	-6	10	1.4	-6
Cc1ccc(F)c(NC(=O)c2c(-c3ccccc3)noc2C)c1	8	-5	-14	-20	-0.5	-4
COc1ccc(S(=O)(=O)Nc2ccc3c(c2)CC(=O)N([C@H](C)CO)C[C@H](C)[C@H](CN(C)C(=O)Nc2ccc4c(c2)OCO4)O3)cc1	4	1	-1	x	-0.1	1
O=c1c2ccccc2nc(SCc2nc3ccccc3s2)n1Cc1ccco1	12	-1	-11	-4	2.7	52
NS(=O)(=O)c1cccc(NC(=O)COC(=O)/C=C/c2nc3ccccc3s2)c1	u	-7	-8	x	-0.7	-1
CCCCn1c(N)c(N(CC)C(=O)c2cccc(F)c2)c(=O)[nH]c1=O	-10	14	-4	-7	0.2	0
Cc1ccc2nc(Cl)c(C3CC(c4ccco4)=NN3S(C)(=O)=O)cc2c1 (stereo not given)	-14	-11	-2	5	0.1	5
CSc1ncccc1C(=O)NCc1nnc2ccccn12	-11	-9	-4	x	1.4	19
C=CCN=C(NC#N)SCc1ccccc1Cl	8	12	-1	0	1.0	2
Cc1cc(N(CN2CCCC2=O)C(=O)c2ccccc2)no1	-5	1	-10	-12	-0.1	-4
Cc1noc(C)c1COc1ccc(CC(=O)NCc2ccccc2)cc1	0	15	-5	0	2.5	-30
Cc1cccc(N=C2NC(=O)CS2)c1	5	0	7	6	-0.3	4
Cc1cc(C)c(S(=O)(=O)NCCC2CCCN2C)c(C)c1 (stereo not given)	4	2	-26	-4	0.0	15
Cc1cccc(NC(=O)NCCCCc2ccccc2)c1	-6	18	-29	-5	0.0	14
Cn1nc(OC(=O)Nc2cccc(Cl)c2)cc1C(F)(F)F	-1	22	-7	-3	0.9	35
Cc1cc(C)n(C2=NS(=O)(=O)c3ccccc32)n1	1	8	-6	3	0.0	-6
O=C1COc2ccc(C(=O)COC(=O)/C=C/c3cccc(F)c3)cc2N1	u	-15	-12	x	1.6	-6
CC1(C)CC(=O)C=C(Nc2ccc(S(N)(=O)=O)cc2)C1	3	2	-6	0	-0.2	44
O=S1(=O)CC(N2CCC(c3ccccc3)CC2)CN1C1CCCCC1 (stereo not given)	0	-5	-8	x	0.1	x
Cc1n[nH]c(=S)n1/N=C/c1ccc(OCc2ccc(Cl)cc2)cc1	-2	-1	22	-7	0.3	-6
CCOC(=O)N1CCN(S(=O)(=O)c2ccc(C(=O)Nc3ccc4c(c3)C(=O)NC4=O)cc2)CC1	-1	-2	-23	8	-0.7	-7
CN(C)/C=C/C(=O)c1ccc(Cl)cc1Cl	32	11	-6	-3	0.6	-8
CC1CCCN(C(=O)CN2CCC(c3nc4ccc(Cl)cc4[nH]3)CC2)C1 (stereo not given)	x	4	-22	7	-1.1	48
CCOC(=O)c1ccc(N=c2sc(C(=O)OC)cc(=O)n2CCCN2CCOCC2)cc1	4&-3	2&6	-7&-3	-14&19	0.3&-0.3	-7&-2
O=[N+]([O-])c1cccc(N(CC(O)CN2CCCCC2)S(=O)(=O)c2ccccc2)c1 (stereo not given)	0	-3	-9	1	1.6	6
CCCCOc1ccc(C(=O)OCC(=O)Nc2cc(C)on2)cc1	-1	3	-21	6	-0.4	9
O=C(CC1(O)C(=O)N(CCc2ccccc2)c2ccccc21)c1ccccn1 (stereo not given)	-15	5	-22	-2	-0.6	13
COc1ccc(NC(C)=O)cc1NS(=O)(=O)c1ccc2c(c1)OCCO2	-17	2	-4	4	0.2	20
CC1C(=O)N(Cc2cn(Cc3ccco3)nn2)CCS(=O)(=O)N1Cc1ccc(-c2ccccc2)cc1 (stereo not given)	1	-7	0	x	0.7	13
COCCn1c(-c2ccc(C)cc2)nc2oc3cc(OC)ccc3c(=O)c2c1=O	x	5	-4	u	0.7	6
Clc1ccc(-c2csc(N/N=C\c3cccnc3)n2)cc1	-8	-3	u	6	0.1	-7
Cc1cc(C2C(C#N)=C(N)SC(N)=C2C#N)c(C)s1	-3	-13	7	x	5.4	11
COc1nc(Nc2ccccc2F)nc(OC)n1	-9	10	-1	-3	0.6	-15
O=C(NCCCN1CCCC1=O)c1cccc(Oc2ccccc2)c1	x	6	-8	3	0.7	-10
OC(CNCC1CCCO1)Cn1c2ccccc2c2ccccc21 (stereo not given)	-2	4	-27	-2	0.8	-3
Cc1ccccc1NC(=O)NCC1CCCO1 (stereo not given)	7	2	17	-6	-0.4	-4
COC(=O)[C@@H](Cc1ccccc1)NC(=O)[C@H]1CCC(=O)N1C(=O)OCc1ccccc1	-24	12	-12	11	x	x
COC(=O)c1cccnc1-n1c(=O)c2cccnc2n(CC(=O)Nc2ccc(Br)cc2)c1=O	x	-3	-15	u	-0.5	-14

Screening data deposited in PubChem BioAssay by National Center for Advancing Translational Sciences (NCATS).

Compounds were not picked by outcome; any-hit rate near 0.95%.
